LANA-H2A inh: blocks KSHV LANA binding to histone H2A/H2B; Q9QR71; cell-free LANA-H2A/H2B peptide, fluorescence polarization; inhibition, % (no concentration beside the values); hit rate 0.6% among 320,000; AID 2629; in the data active means inhibition mostly above about 10%, no sharp cut-off; inactive means mostly below about 6.7%;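 further: stock transfer was 7.5 nL into about 10 µL; 0% = median of vehicle wells and 100% = median of positive control wells; one replicate is shown; the record names a cut of 25% in any replicate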
Bfl-1 A1 inh: inhibitors of the anti-apoptotic protein A1, read as caspase activation; MEF A1-2A-BIM cells, Caspase-Glo 3/7 luminescence, 3 h; percent of clofoctol response, vehicle zero; caspase activation, % (concentration not given with the values); hit rate 0.066% among 330,000; AID 2462;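 active means over half of replicate activation scores above 10%, or exactly half above 10 with the replicate mean above 10; inconclusive means replicate mean below 10 yet half the replicates above 10; inactive means over half of replicates below 10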;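 further: wells of about 30 µL received 50 nL stock; many hits fall short of the cut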
AF4-AF9 inh: inhibitors of human MLL-AF4/AF9 interaction; AlphaScreen, biotin-AF4 peptide binding to FLAG-AF9; inhibition, % at 10 µM; hit rate 0.47% among 350,000;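 active means every replicate reaching a set inhibition limit, whatever the replicate mean, cut at about 25% in these data; inconclusive means mean inhibition reaches that limit but some replicates miss it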;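 further: 0% = plate neutral control median and 100% = total signal loss; the record names both 10 and 1 µM as test concentration; the first replicate is given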
Target sequence (P42568 whole entry, looked up): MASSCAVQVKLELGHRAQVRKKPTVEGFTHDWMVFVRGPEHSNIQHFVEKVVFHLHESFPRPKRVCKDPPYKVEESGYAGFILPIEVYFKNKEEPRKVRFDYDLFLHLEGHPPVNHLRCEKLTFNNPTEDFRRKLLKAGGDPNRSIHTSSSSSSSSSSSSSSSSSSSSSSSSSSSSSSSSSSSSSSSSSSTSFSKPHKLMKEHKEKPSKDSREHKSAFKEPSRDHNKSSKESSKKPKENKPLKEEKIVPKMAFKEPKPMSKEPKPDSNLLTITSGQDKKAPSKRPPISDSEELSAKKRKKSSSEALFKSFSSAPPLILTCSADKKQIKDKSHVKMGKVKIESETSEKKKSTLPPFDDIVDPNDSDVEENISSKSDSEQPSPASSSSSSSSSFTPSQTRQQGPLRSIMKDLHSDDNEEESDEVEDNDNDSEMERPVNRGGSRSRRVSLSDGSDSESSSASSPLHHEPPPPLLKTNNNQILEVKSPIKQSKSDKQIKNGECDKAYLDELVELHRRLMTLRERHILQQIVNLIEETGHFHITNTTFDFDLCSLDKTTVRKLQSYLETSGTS
Vif TR-FRET: inhibitors of Vif binding to APOBEC3G peptide, primary screen, biochemical, TR-FRET, GST-Vif 1-94, biotin-A3G peptide, dose response retest (AID 1117319); hit rate 0.57% among 260,000; one-dose inhibition, %; IC50 in µM for titrated hits; TR-FRET GST-Vif / biotin-A3G peptide binding; higher % means a stronger effect; test concentration not given here; strong numbers were not always called active;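 active means above the screen mean plus three standard deviations and confirmed in dose response; inconclusive means results disagree or hit not tested in dose response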;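 further: Vif residues 1-94 fused to GST binding biotinylated APOBEC3G peptide 110-148; 0% = full assay without inhibitor and 100% = GST in place of GST-Vif; retest series ran down from 100 µM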
T cruzi repl: blocks replication of Trypanosoma cruzi | hit rate 1.4% among 300,000 | AID 1885 | inhibition, % (test concentration not listed) | T. cruzi beta-gal in NIH3T3, luminescence, 90 h;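 active means mean inhibition across valid replicates above about 55%, limit read from the data; inconclusive means mean below that limit but half or more replicates reach it; inactive means mean below it, under half of replicates reach it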;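 further: signal also drops with host cell toxicity which is not excluded here; 0% = plate median of DMSO wells and 100% = zero luminescence signal; higher percent means less beta-gal luminescence so fewer parasites; stock transfer was 50 nL into about 50 µL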
Calb FLC: C. albicans growth modulation with fluconazole | C. albicans CaCi-2 (fluconazole-resistant clinical isolate) + fluconazole, Alamar Blue growth, 48 h | growth inhibition, % (concentration not given with the values) | hit rate 0.57% among 300,000;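 active means most replicates above 75%; inconclusive means exactly half above 75%; inactive means most below 75%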;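 further: all wells also contain fluconazole at 8 µg/ml as a sub-toxic cotreatment; 0% = median of DMSO wells and 100% = median of geldanamycin control wells; wells of about 8 µL received 7.5 nL stock; the first replicate is given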
RanGTP-Impb inh: inhibitors of RanGTP-importin-beta interaction, primary screen, biochemical, FRET, CFP-Ran, YFP-importin-beta, homogeneous; inhibition, % (test concentration not listed); hit rate 1.1% among 300,000; cell-free CFP-Ran/YFP-importin-beta FRET ratio;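 active means most replicates above 15%; inconclusive means exactly half above 15%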;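 further: 0% = DMSO wells and 100% = Ran loaded with GDP instead of GTP; wells of about 40 µL received 100 nL stock; the first replicate is given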
Beta apoptosis: blocks beta cell apoptosis | INS-1E cytokine-induced death, ATP luminescence, 48 h; percent of positive-control rescue, neutral wells zero | protection from apoptosis, % (concentration not given with the values) | hit rate 0.8% among 300,000;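 active means all replicates at 75% or more, or half of them and the mean; inconclusive means half reach 75% but not the mean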;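 further: 0% = cytokine-treated negative control wells and 100% = positive control rescue; higher means more ATP so stronger rescue from cytokine killing; wells of about 40 µL received 100 nL stock; the first replicate is given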
Starred values were filed as active, the others as inactive; ? = inconclusive; / = no result given; & = joins results of further samples.

Compound,LANA-H2A inh,Bfl-1 A1 inh,AF4-AF9 inh,Vif TR-FRET,T cruzi repl,Calb FLC,RanGTP-Impb inh,Beta apoptosis
O=C(NC1CCCC1)C1CCCN(S(=O)(=O)c2cccc3cccnc23)C1 (stereo not given),-0.9,-0.7,-2.9,5%,4,-6,-3.9,1
C/C(=N\Nc1nc(C(C)(C)C)cs1)c1ccc(O)cc1,1.7,-0.7,5.1,-1%,22,3,-0.9,5
CCCCC(=O)NC(c1ccccc1Cl)c1c(O)ccc2ccccc12 (stereo not given),-1.6,-1.0,/,/,26,18,-0.2,1
O=C(O)CC(NC(=O)Cc1ccccc1)c1cc([N+](=O)[O-])ccc1Cl (stereo not given),-6.0,0.8,-2.0,-9%,-6,?,-1.7,-3
O=C(CSc1nc(-c2ccco2)cc(C(F)(F)F)n1)NC1CCCC1,-6.5,/,11,-6%,-2,3,4.3,-24
N#Cc1ccc(-n2nnc3ccccc3c2=O)c([N+](=O)[O-])c1,-1.6,-0.9,-2.4,/,3,-13,0.7,-1
O=C(NCCc1ccc(Cl)cc1Cl)c1cccnc1,-2.2,0.1,-13,0%,11,6,1.2,/
O=C(NCc1ccco1)c1cc2n(n1)C(C(F)(F)F)CC(c1ccc(F)cc1)N2 (stereo not given),2.9,0.3,/,-5%&-6%,7,5,0.1,-1
Cc1ccccc1OCc1nc2ccccc2c(=O)n1/N=C/c1cccc([N+](=O)[O-])c1,5.0,0.1,/,/,11,3,4.4,5
COc1ccc(S(=O)(=O)n2oc(=O)cc2-c2ccccc2)cc1OC,0.7,-0.3,/,15%,6,0,4.5,-4
NC(=O)C1(c2ccccc2)CCCN1C(=O)c1ccc(Br)cc1 (stereo not given),-2.4,-0.1,-18,16%,-8,-7,5.7,-12
Cc1ccc(/C=C2\CCC(C3CCCC3)C2=O)cc1 (stereo not given),-5.2,-4.8,/,3%,-7,-4,1.0,1
S=c1[nH]nc(Cc2cccc3ccccc23)n1-c1ccccc1,-30,-0.7,/,6%,7,2,1.5,3
CCOC(=O)c1ccccc1NC(=O)C1CC(=O)N(C2CCCCC2)C1 (stereo not given),-5.9,0.4,0.3,/,1,2,8.2,0
COc1ccccc1NC(=O)CS(=O)(=O)c1cn(CC(=O)N(C(C)C)C(C)C)c2ccccc12,1.7,-1.2,1.1,-8%,-11,12,-0.1,2
CCCCCn1nc(C)c(/C=N/NC(=O)c2ccoc2C)c1C,0.0,-5.6,/,3%,12,2,0.8,-1
N#CC1(c2ccccc2)CCCN1C(=O)c1ccccc1Br (stereo not given),-4.0,0.0,/,1%,2,-13,3.7,-2
COc1cccc(-c2nc(CS(=O)(=O)CC(=O)NCCc3ccc(C)cc3)c(C)o2)c1,5.6,-0.8,-0.1,/,20,13,0.3,2
Cc1nn(-c2ccccc2)c(NC(=O)c2cccs2)c(-c2ccc(Cl)cc2)c1=O,4.5,-0.6,/,1%,0,1,1.5,2
Cc1nc2cc(NCc3cccs3)ccc2n1C,-2.3,-0.6,4.3,-5%,-15,4,4.2,5
O=C(CSc1ccc([N+](=O)[O-])cc1)Nc1cccc(S(=O)(=O)N2CCOCC2)c1,2.0,-0.4,5.6,/,/,/,/,0
CC(C)CC(OC(=O)c1ccc(Cl)nc1)C(=O)NC1CCCC1 (stereo not given),-6.4,0.3,-5.4,/,-1,2,-4.6,-8
CCOc1cc(CNc2ccccc2)cc(Br)c1OCc1ccc(F)cc1,5.3,-0.5,/,-2%,25,-16,?,0
Cn1c(=O)n(C)c2cc(S(=O)(=O)NCCc3ccccc3)ccc21,0.3,-0.1,/,10%,0,-4,6.2,-4
Cc1cc(C(=O)OCn2nnc3ccccc3c2=O)c(C)o1,2.1,0.3,/,2%,2,2,3.4,-1
C=CCn1c(O)c(N=NC(=O)CNC(=O)/C=C/c2ccco2)c2ccccc21,0.4,-0.2,/,17%,15,-11,3.8,3
COc1ccc(OC)c(NC(=O)CS(=O)(=O)c2cn(CC(=O)N3CCOCC3)c3ccccc23)c1,-0.7,1.0,-9.7,/,7,-6,-1.6,/
CCc1ccccc1NC(=O)Nc1ccc2c(c1)OCO2,2.0,-6.9,-4.3,-4%,-21,-18,5.9,3
COc1ccc(OC)c(C2CC(c3ccc(NS(C)(=O)=O)cc3)=NN2C(=O)c2ccccc2)c1 (stereo not given),0.1,0.6,-2.3,/,13,42,-2.3,5
COc1ccc(OC)c(NC(=O)C(=O)NNC(=O)COc2ccc(Br)cc2C)c1,-4.4,-0.6,0.7,/,-8,13,-1.0,/
O=C(Nc1ccccc1C(=O)NCc1ccc(Cl)cc1)c1ccco1,-0.4,0.3,/,6%,7,9,0.4,-7
Cn1c(=O)[nH]c(=O)c2c1nc(Br)n2CCCCSc1nc2ccccc2o1,0.3,0.0,6.5,3%,2,-2,/,-7
CNC(=O)c1ncnnc1N(C)C(=O)NCc1ccccc1,0.8,0.6,/,-2%,-9,?,3.4,-4
O/N=C(\COc1ccccc1O)c1ccccc1,1.5,0.1,/,-1%,20,-25,-4.4,-2
O=C(COC(=O)C1CC1)Nc1ncc(Cl)cc1Cl,4.3,1.1,-3.6,16%,-11,0,2.6,-4
COc1ccc(C(=O)N2CCNC(=O)C2CC(=O)Nc2cccc(Cl)c2Cl)cc1 (stereo not given),3.1,1.8,-0.6,0%,-3,1,2.8,/
COc1ccc(-n2c(Cc3cc(=O)[nH]c(=O)[nH]3)nnc2SCC(=O)NC2CCCC2)cc1,3.4,0.2,-11,2%,-5,-4,-7.0,-3
O=C(NCc1cccc(Cl)c1)C1CCC(=O)N(CC2CCCCC2)C1 (stereo not given),-0.5,0.7,-0.3,/,-7,-18,2.1,-1
CCc1cc2ccc(OC)cc2nc1SCC(=O)NNC(=O)c1ccco1,-2.2,0.9,-1.8,-10%,-1,17,3.6,-5
COc1ccc(CNC(=O)CN2c3ccccc3S(=O)(=O)c3ccccc32)cc1,-10,-0.5,1.0,/,12,22,?,1

An excerpt from further up:
Compound,LANA-H2A inh,Bfl-1 A1 inh,AF4-AF9 inh,Vif TR-FRET,T cruzi repl,Calb FLC,RanGTP-Impb inh,Beta apoptosis
O=C(NCc1cccc(Cl)c1)C1CCC(=O)N(CC2CCCCC2)C1 (stereo not given),-0.5,0.7,-0.3,/,-7,-18,2.1,-1
CCc1cc2ccc(OC)cc2nc1SCC(=O)NNC(=O)c1ccco1,-2.2,0.9,-1.8,-10%,-1,17,3.6,-5
COc1ccc(CNC(=O)CN2c3ccccc3S(=O)(=O)c3ccccc32)cc1,-10,-0.5,1.0,/,12,22,?,1

Going on with the list:
Compound,LANA-H2A inh,Bfl-1 A1 inh,AF4-AF9 inh,Vif TR-FRET,T cruzi repl,Calb FLC,RanGTP-Impb inh,Beta apoptosis
CC(=O)Nc1ccc(SCCC2CCCCN2C)cc1 (stereo not given),5.3,-0.1,-1.0,/,16,-17,-1.2,1
CCCCCCCN1C(Nc2ccccc2)=NC[C@@H]1C,-2.6,0.0,-15,/,/,/,/,7
COc1ccc(N2CCN(CC(=O)N3N=CCC3c3ccccc3)CC2)cc1 (stereo not given),6.2,0.6,-0.5,6%,-13,21,-3.8,4
O=C(NNc1cc(Cl)ccc1Cl)c1c(F)cccc1Cl,-1.4,0.0,/,9%,-23,6,-4.6,-2
COc1ccc(OCCCn2ccnc2)cc1,2.1,0.2,-0.8,/,-11,4,2.1,-6
CCn1c(CNC(=O)c2ccc3c(c2)OCO3)nnc1SCC(=O)Nc1ccccc1F,3.1,0.0,-1.2,/,1,0,-0.9,-2
C/C(Cc1ccccc1)=N\NC(=O)CNC(=O)Cc1ccc(Cl)cc1,0.3,-0.5,-3.7,-15%,-32,-6,2.1,2
O=C1NC2(CCCCC2)C(=O)N1c1cccc(Cl)c1,-2.7,0.5,0.0,/,-1,-3,1.2,-3
CCCC(C)NC(=O)COC(=O)c1ccc(Cl)c(S(N)(=O)=O)c1 (stereo not given),4.3,-1.5,/,-1%,-2,17,2.2,-5
Cc1cc(C)n2nc(SCC(=O)c3cc(C)n(CC4CCCO4)c3C)nc2n1 (stereo not given),-6.1,-0.3,2.1,20%,2,10,-3.0,4
COc1ccc(-c2c([C@H]3[C@H]4C=CC[C@@H](C)[C@@H]4C(=O)N3Cc3ccccc3)ccc3ccccc23)cc1,-4.8,-1.2,/,/,30,20,-0.5,107*
O=C(Nc1cccc(Cl)c1)c1cc(N=Nc2ccc([N+](=O)[O-])cc2Cl)ccc1O,-1.8,0.5,5.7,0%,-2,3,-1.3,46
Cc1ccc(NC(NC(=O)c2cccs2)C(Cl)(Cl)Cl)cc1C (stereo not given),5.2,1.3,/,0%,-8,-12,4.4,/
CCCC(=O)Nc1ccc(C)c(O)c1,3.4,-0.6,/,1%,-16,6,5.0,-7
CC(=O)c1ccc(OCC(O)CN(C)Cc2cccs2)cc1 (stereo not given),-1.8,0.2,/,1%,0,-1,1.9,0
CC(=O)Nc1cccc(Nc2nc(-c3ccccc3F)nc3ccccc23)c1,5.6,0.6,-4.6,-5%,9,9,2.8,6
CCc1cccc(CC)c1-n1c(SCC(=O)N2CCc3ccccc32)nc(O)cc1=O,5.7,0.7,-0.5,-4%,/,/,/,3
COc1cccc(NC(=O)CN(C)C(=O)CN2C(=O)c3ccc([N+](=O)[O-])cc3C2=O)c1,3.8,0.2,-22,-2%,-7,1,4.6,-6
CC(=O)Nc1ccc(NC(=O)CC(C)n2ccnc2)cc1 (stereo not given),-1.8,2.3,-3.2,1%,-5,-10,0.5,/
